GALR2 ag – agonists of human galanin receptor 2 (GALR2); O43603; GALR2-expressing cells, agonist activation read-out; activation, %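 (tested at 5 µM)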; hit rate 0.48% among 140,000; AID 803;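 active = above mean plus 3 SD of all compounds, about 5% in these data, not always enough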;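 note: 0% = vehicle buffer wells and 100% = reference agonist at full effect; tested in CHO reporter cells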
HSV replic up – HSV replication enhancement. HSV replication augmentation in cells, fold increase. maximum fold increase. hit rate 0.005% among 220,000. AID 1956;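 active = peak rise of 1.5-fold or more in the series; inconclusive = self-fluorescent or not available for retest; tested in PC3 cells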;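 note: first round at 10 µM; read as green reporter fluorescence; hits show the peak of a series up to 25 µM; 1 = signal of infected wells without compound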
RGS16-Gao – regulators of human RGS16-Galphao interaction; bead-based flow cytometry RGS16-Galphao binding, fluorescence; actives lie on both sides; hit rate 0.38% among 220,000; O15492+P09471; binding response (% of control), % at 10 µM;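 active = below 25% or above 175%, edge rows of some plates excepted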;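 note: Galphao activated by GDP with aluminum fluoride before binding; 100% = wells without compound and 0% = beads without RGS; some results beyond the cut were filed as inactive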
PKD1 kinase inh – inhibitors of human PKD1 kinase; hit rate 0.056% among 200,000; inhibition, %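 (about 10 µM by stock and volumes)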; PKD1 kinase fluorescence polarization assay; Q15139;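 active = inhibition of 50% or more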;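 note: controls were vehicle for no effect and a reference inhibitor for full effect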
Target sequence (Q15139 whole entry, looked up): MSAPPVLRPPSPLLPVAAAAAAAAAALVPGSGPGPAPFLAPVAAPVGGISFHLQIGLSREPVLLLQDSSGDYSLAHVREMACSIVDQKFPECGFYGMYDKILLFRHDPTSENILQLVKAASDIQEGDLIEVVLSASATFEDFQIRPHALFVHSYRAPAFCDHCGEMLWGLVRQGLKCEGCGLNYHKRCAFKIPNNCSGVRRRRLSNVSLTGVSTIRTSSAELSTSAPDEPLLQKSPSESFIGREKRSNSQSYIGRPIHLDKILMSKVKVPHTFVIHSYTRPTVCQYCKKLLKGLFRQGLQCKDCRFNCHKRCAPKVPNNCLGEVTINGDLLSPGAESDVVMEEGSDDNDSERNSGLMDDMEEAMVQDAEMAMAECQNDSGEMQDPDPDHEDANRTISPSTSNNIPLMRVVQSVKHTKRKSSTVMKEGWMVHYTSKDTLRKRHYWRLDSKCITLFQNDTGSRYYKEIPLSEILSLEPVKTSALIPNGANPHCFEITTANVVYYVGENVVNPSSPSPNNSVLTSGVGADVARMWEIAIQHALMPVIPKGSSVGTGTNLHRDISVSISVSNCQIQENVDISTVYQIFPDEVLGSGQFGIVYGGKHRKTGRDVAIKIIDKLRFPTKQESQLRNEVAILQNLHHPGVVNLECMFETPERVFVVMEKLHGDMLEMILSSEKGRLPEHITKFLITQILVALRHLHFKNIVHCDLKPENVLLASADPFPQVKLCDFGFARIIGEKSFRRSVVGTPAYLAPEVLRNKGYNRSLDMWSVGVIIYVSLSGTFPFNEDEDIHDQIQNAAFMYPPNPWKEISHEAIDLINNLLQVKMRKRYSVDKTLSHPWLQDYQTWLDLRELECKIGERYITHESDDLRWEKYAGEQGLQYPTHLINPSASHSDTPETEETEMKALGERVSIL
INS promoter inh – TRM-6 insulin promoter activity inhibition. TRM-6 cells (human fetal islet line), insulin promoter-eGFP reporter, imaging; reporter expression induced with tamoxifen. inhibition, % at 2 µM. hit rate 0.9% among 130,000. AID 1273;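 active = inhibition above the mean plus 3 SD, with well images judged a real hit on visual review, cut at about 60% in these data, passing the limit was not always enough; inconclusive = inhibition over the cutoff but images rejected on review; inactive = inhibition not above the cutoff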
INS promoter inh cell count – second read-out of INS promoter inh, no call of its own (marks repeat the call); normalized cell count, %; measured here: cell count, toxicity; reference of the scale not given here;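 cells exposed to compound for 48 h; stained nuclei by imaging scaled within each plate; lower means fewer cells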
HSV replic up primary fold – also measured in HSV replic up; calls as there; fold increase; compound at 10 µM; measured here: primary screen fold increase 10 uM; tested in PC3 cells;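 GFP signal in the first replicate; 1 = infected wells without compound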
The depositor's hits bear a star; i = inactive; ? = inconclusive; · = no result given.

SMILES	GALR2 ag	HSV replic up	HSV replic up primary fold	RGS16-Gao	PKD1 kinase inh	INS promoter inh	INS promoter inh cell count
COC(=O)c1cccc(NC(=O)CSc2nnc(COc3ccccc3)n2C)c1	-0.2	i	0.99	106	-9	32	101
CC(C)NC(=O)c1ccc2c(c1)N(CC(=O)N1CCOCC1)C(=O)C(C)(C)O2	-1.8	i	0.81	99	22	-14	107
Cc1ccc(/C=N\Nc2nc3ccc(Cl)cc3[nH]2)o1	-1.1	i	0.85	103	-6	-4	92
Cc1ccc(-c2nnn(CC(=O)Nc3ccc4nn(-c5ccccc5)nc4c3)n2)o1	-0.9	·	·	88	-6	-27	86
COc1ccc(C2C3=C(CCCC3=O)Nc3nc(SCc4ccccc4)nn32)cc1OC (stereo not given)	0.5	i	0.67	103	-4	-31	82
O=C(O)C1[C@H]2C(=O)N(C3CCCC3)C[C@]23C=C[C@H]1O3 (stereo not given in full)	-0.2	i	0.89	97	-1	0	104
Cc1cccc(NC(=O)C(C)Oc2ccccc2C)n1 (stereo not given)	-1.6	i	0.92	104	-1	37	107
O=C(N=Nc1ccc(NOC(=O)c2ccccc2Br)cc1)c1ccccc1O	·	i	1.1	105	1	·	·
COc1ccc(NC(=O)C2CCCN(S(=O)(=O)c3c(C)[nH]c(=O)[nH]c3=O)C2)cc1 (stereo not given)	0.2	i	0.97	101	1	-14	48
O=C(Nc1cccnc1)Nc1cc(Cl)cc(Cl)c1	·	i	0.95	97	6	·	·
O=C(NCc1ccccc1)c1csc2c1CCCC2	·	i	0.99	100	7	0	55
CCn1c(=O)cc(N2CCC3(CC2)OCCO3)[nH]c1=O	-1.9	i	0.97	98	2	·	·
COc1ccc(C2C3=C(CC(C)(C)CC3=O)Oc3ncn(CCCn4ccnc4)c(=N)c32)cc1 (stereo not given)	-1.7	i	0.94	97	12	-19	115
O=C(Nc1nnc(-c2ccc(F)cc2)o1)c1cc(Cl)sc1Cl	-0.2	i	1	92	-5	-257	1
CC(C)C(=O)NC(Nc1cccc2cccnc12)C(Cl)(Cl)Cl (stereo not given)	-4.0	i	0.99	136	-13	·	·
O=C(c1ccccc1Nc1ccc(SC(F)F)cc1)N1CCCCCC1	-1.1	i	1.1	98	-1	0	69
CCOc1ccnc(OCC)c1Br	1.6	i	1	103	2	79*	58*
COc1cc(CCC(=O)Nc2cc(Cl)ccc2N2CCN(C)CC2)cc(OC)c1OC	-0.3	i	0.89	108	-7	-6	38
CC(Sc1nc2cc(Cl)ccc2s1)C(=O)Nc1ccc2c(c1)OCO2 (stereo not given)	-0.9	i	1.1	157	-7	·	·
O=C1OC(N2CCN(C/C=C/c3ccccc3)CC2)c2ccccc21 (stereo not given)	0.0	·	·	99	-8	83*	54*
Cn1c(=O)c2c(nc(CN3CCN(Cc4ccccc4)CC3)n2Cc2cccc(Cl)c2)n(C)c1=O	1.0	i	0.61	·	-5	·	·
CC(C(=O)NCC1(c2ccccc2)CCCC1)N1CCCC1 (stereo not given)	-1.8	i	0.88	109	-2	4	128
COc1ccc(CCNC(=O)c2ccc(CNS(=O)(=O)c3ccccc3)cc2)cc1OC	-1.7	i	1.1	66	-10	-23	94
O=C(O)c1ccc(Sc2nnc3ccccn23)c([N+](=O)[O-])c1	·	i	0.99	102	·	·	·
CCN(CC)c1ccc(/C=C2\C(=O)c3ccc(C(=O)O)cc3C2=O)cc1	0.1	?	·	98	-4	0	96
COCCNC(=O)c1onc(CSc2ccc(F)c(F)c2)c1C(=O)O	-1.4	i	0.86	98	3	·	·
O=C1OC(N2CCN(c3ccccn3)CC2)c2ccccc21 (stereo not given)	0.5	i	0.94	100	-4	16	94
CCOc1ccccc1N(C(=O)c1snc(C(N)=O)c1N)C(C(=O)NCCC(C)C)c1ccco1 (stereo not given)	0.7	i	1.1	103	2	-24	95
COc1ccccc1NC(=O)c1nc[nH]c1C(=O)Nc1ccccc1OC	0.6	i	0.99	101	-13	-50	78
CC12CC(NC(=O)N1c1cccc(C(=O)N3CCN(c4ccccn4)CC3)c1)c1ccccc1O2 (stereo not given)	-0.3	i	1.1	99	-9	-14	137
O=C(O)/C=C/C(=O)NCCc1cccc(Cl)c1	·	i	0.99	108	-11	·	·
C[C@H]1C=C(C(=O)NC2CC2)O[C@@H](OCc2ccc(CO)cc2)C1	·	i	1	101	·	·	·
CSc1cccc(NC(=O)C2CCN(C(=O)c3ccccc3C)CC2)c1	-0.4	i	1	98	5	21	120
C[N+]1(CC(=O)OC2CCCCCCCCCCC2)CCCC1	·	i	0.98	75	-5	-30	119
COc1ccc(C(=O)N=c2nc3ccccn3s2)cc1	-1.8	i	0.9	100	-2	·	·
COC(=O)CC1SC(=O)NC1=Nc1ccc(O)cc1 (stereo not given)	-0.2	i	1	103	4	5	119
COc1ccc(S(=O)(=O)Nc2ccc(S(=O)(=O)N3CCOCC3)cc2)cc1C	0.3	i	0.99	103	7	-5	66
CCOc1ccc(S(N)(=O)=O)cc1-c1nc2c(C(C)(C)C)nn(C)c2c(=O)[nH]1	·	i	1.1	103	·	·	·
Cn1c(N)c(C(=O)COC(=O)c2ccc3c(c2)OCCO3)c(=O)n(C)c1=O	-0.4	i	0.86	101	-2	10	77
COc1ccc(CNC(=O)Nc2cc(C)ccc2C)cc1	·	i	1.1	105	-5	·	·
COC(=O)c1nc2cc3c(cc2c(C)c1C(=O)OC)OCO3	-1.1	i	0.65	107	10	64	78
O=c1oc2ccccc2cc1-c1nnc(NCc2ccco2)s1	0.2	i	0.89	76	-4	40	92
CCOC(=O)C1=C(OCc2ccc(Cl)cc2)C2C=C(C)C=CC2N=C1 (stereo not given)	-1.7	i	1.2	103	-4	61	77
COC(=O)c1ccc(NC(=S)NN2CCOCC2)cc1	·	i	0.99	123	6	-67	142
Cc1cc(NC(=O)c2c(Cl)c(C)nn2C)no1	-0.7	·	·	101	6	25	154

6 consecutive records from above, for reference:
SMILES	GALR2 ag	HSV replic up	HSV replic up primary fold	RGS16-Gao	PKD1 kinase inh	INS promoter inh	INS promoter inh cell count
COc1ccc(CNC(=O)Nc2cc(C)ccc2C)cc1	·	i	1.1	105	-5	·	·
COC(=O)c1nc2cc3c(cc2c(C)c1C(=O)OC)OCO3	-1.1	i	0.65	107	10	64	78
O=c1oc2ccccc2cc1-c1nnc(NCc2ccco2)s1	0.2	i	0.89	76	-4	40	92
CCOC(=O)C1=C(OCc2ccc(Cl)cc2)C2C=C(C)C=CC2N=C1 (stereo not given)	-1.7	i	1.2	103	-4	61	77
COC(=O)c1ccc(NC(=S)NN2CCOCC2)cc1	·	i	0.99	123	6	-67	142
Cc1cc(NC(=O)c2c(Cl)c(C)nn2C)no1	-0.7	·	·	101	6	25	154

New compounds follow.
SMILES	GALR2 ag	HSV replic up	HSV replic up primary fold	RGS16-Gao	PKD1 kinase inh	INS promoter inh	INS promoter inh cell count
CCCCCC(=O)N/N=C(\C)c1ccccn1	-3.6	i	0.97	75	5	27	108
CC12CN(Cc3ccccc3)CC(C)(CN(Cc3ccccc3)C1)C2=O	·	i	0.99	99	-13	-13	73
O=C(Cc1c(O)c2ccccc2[nH]c1=O)NCc1ccccc1F	-1.2	i	1	94	-6	-54	183
CCN1CCC2(CC1)N=C(c1ccc(F)cc1)C(=S)N2C(=O)c1ccc(C)cc1	0.2	i	0.93	98	-3	·	·
CCCCCCCC(=O)N/N=C/c1ccncc1	·	i	0.92	104	·	·	·
Cc1cccc(NC(=O)CSc2nc(-c3ccccc3)c(C#N)c(=O)[nH]2)c1C	-2.4	·	·	100	-5	·	·
CCCCN1C(=O)CC(C(=O)O)C1c1ccc(OC)cc1 (stereo not given)	-1.7	i	0.9	98	-1	-23	121
O=[N+]([O-])c1cc(C(F)(F)F)ccc1SCC(O)CO (stereo not given)	·	i	0.92	102	0	·	·
N#CC1(c2ccccc2)CCCN1C(=O)c1ccco1 (stereo not given)	-1.3	i	0.77	98	-14	·	·
Cc1nnc2ccc(N3CCC4(CC3)OCCO4)nn12	0.0	i	0.9	104	2	19	64
CC(=O)c1cccc(N(C(=O)Cn2nnc3ccccc32)C(C(=O)NC2CCCCC2)c2cn(C)nc2C)c1 (stereo not given)	-0.6	i	0.93	101	1	·	·
C/C(=C(\C#N)C(=O)NCc1ccccc1)N(C)C	-3.0	i	0.98	105	9	20	94
CSc1ncccc1C(=O)OCC(=O)c1ccc2c(c1)NC(=O)CO2	·	i	0.94	99	·	·	·
O=S(=O)(N/N=C\c1cccnc1)c1ccccc1	-2.3	i	1	107	-6	-184	112
O=C(CSc1nc2ccccc2c(=O)[nH]1)Nc1ccc(S(=O)(=O)N2CCCC2)cc1	-1.7	i	0.77	108	-4	·	·

The last 4 entries of the section above come first, to join the parts.
SMILES	GALR2 ag	HSV replic up	HSV replic up primary fold	RGS16-Gao	PKD1 kinase inh	INS promoter inh	INS promoter inh cell count
C/C(=C(\C#N)C(=O)NCc1ccccc1)N(C)C	-3.0	i	0.98	105	9	20	94
CSc1ncccc1C(=O)OCC(=O)c1ccc2c(c1)NC(=O)CO2	·	i	0.94	99	·	·	·
O=S(=O)(N/N=C\c1cccnc1)c1ccccc1	-2.3	i	1	107	-6	-184	112
O=C(CSc1nc2ccccc2c(=O)[nH]1)Nc1ccc(S(=O)(=O)N2CCCC2)cc1	-1.7	i	0.77	108	-4	·	·
O=S(=O)(c1ccccc1)c1cnc(-c2ccccc2)nc1N1CCCCC1	·	i	0.74	106	-2	·	·
O=C(N/N=C/c1ccc(Br)cc1)c1cc[n+](Cc2ccccc2)cc1	0.2	i	1.1	104	-7	·	·
CC(=O)Nc1ccc(C2=NN(c3ccccc3)C(c3cccs3)C2)cc1 (stereo not given)	·	i	0.9	101	-6	·	·
Cc1[nH]c2ccccc2c(=O)c1C(=O)/C=C/c1ccccc1	·	i	0.39	101	·	·	·
CC(=O)Nc1ccc(Oc2nc(C)cc(C)n2)cc1	-1.4	i	0.93	100	0	47	116
O=C(CSCc1ccc(F)cc1)N1CCOCC1	-0.5	i	1	66	-3	-10	118
Cc1noc(C)c1COC(=O)c1ccc(N(C)C)cc1	·	i	0.87	94	-5	35	108
Cc1ccccc1/C=N\NC(=O)c1ccc(Cn2cccn2)o1	-0.6	·	·	103	7	-58	92
Cc1ccc(S(=O)(=O)N2CCN(c3c([N+](=O)[O-])cc(C(F)(F)F)cc3[N+](=O)[O-])CC2)cc1	-0.3	i	0.94	105	-16	-22	98
CC(C)N=C(NS(=O)(=O)c1ccccc1)C(Cl)(Cl)Cl	-1.1	i	0.87	102	0	-22	85
O=c1c2cc3c(=O)n(CC4CCCO4)c(=O)c3cc2c(=O)n1CC1CCCO1 (stereo not given)	-1.2	i	1.1	104	-5	14	80
O=C1CC(c2ccccc2)=Nc2ccc(Br)cc2N1	·	i	0.92	93	6	·	·
N=C1C(c2nc3ccccc3[nH]2)=C(O)CN1c1ccccc1	-2.4	i	0.76	101	-3	0	101
COc1ccc(Nc2nc(NC(C)(C)C)nc(N3CCCC3)n2)c(OC)c1	0.7	i	0.98	98	1	-243	82
Cn1c2c(c(=O)n(C)c1=O)C(NC(=O)c1ccco1)(C(F)(F)F)C(=O)N2 (stereo not given)	0.0	i	0.76	98	0	·	·
Cc1ccccc1-n1c(C)nc2ccccc21	-2.7	i	0.88	63	-11	·	·
CC(C)C(NS(=O)(=O)c1cccs1)C(=O)N(C)Cc1ccccc1 (stereo not given)	-1.5	i	0.92	102	0	-48	122
Cc1cc(C(=O)N/N=C/c2cccn2C)no1	-2.3	i	1	125	0	21	154
CCN(CC)S(=O)(=O)c1ccc(NC(=O)c2cc(-c3ccccc3)nc3ccccc23)cc1	1.4	i	1	57	8	·	·
CCCCn1c(N)c(N(CCOC)C(=O)CCc2ccc(OC)cc2)c(=O)[nH]c1=O	0.2	i	0.97	104	10	·	·
COCCN(C(=S)Nc1cccc(C)c1)C(C)c1cccs1 (stereo not given)	-0.2	i	0.96	102	-2	-20	128
COCCCNC(=O)Cn1c(=O)n(Cc2ccccc2Cl)c(=O)c2cc(OC)c(OC)cc21	·	i	0.76	100	2	·	·
NC(=O)CC1(CC(=O)O)CCCCC1	-2.6	i	0.97	94	-6	50	107
O=C(NCc1ccco1)c1cnn2cccnc12	·	i	0.99	100	-5	·	·
Cc1cccc(C(=O)N[C@H](C(=O)Nc2nc3ccccc3[nH]2)C(C)C)c1	·	i	0.66	97	-1	·	·
CC(C)CNS(=O)(=O)c1ccc(CCC(=O)Nc2cc(Cl)ccc2Oc2ccccc2)cc1	-1.7	i	0.92	116	3	-19	92
O=C1CCCC2=C1C(c1ccsc1)CC(=O)N2c1nnc(SCc2ccccc2)s1 (stereo not given)	-4.0	i	0.84	105	5	·	·
